RanGTP-Impb inh = disruptors of Ran-importin-beta complex formation – biochemical, FRET, CFP-Ran, YFP-importin-beta, homogeneous, primary screen | cell-free CFP-Ran/YFP-importin-beta FRET ratio | inhibition, % (test concentration not listed) | actives 1.1% (n = 300,000) | AID 2216;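 active = most replicates above 15%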;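 note: 0% = DMSO wells and 100% = Ran loaded with GDP instead of GTP; wells of about 40 µL received 100 nL stock; the first replicate is given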
LANA-H2A inh = blocks KSHV LANA binding to histone H2A/H2B; Q9QR71; cell-free LANA-H2A/H2B peptide, fluorescence polarization; inhibition, % (test concentration not listed); actives 0.6% (n = 320,000); AID 2629; in the data active = inhibition mostly above about 10%, no sharp cut-off; inactive = mostly below about 6.7%;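 note: stock transfer was 7.5 nL into about 10 µL; 0% = median of vehicle wells and 100% = median of positive control wells; one replicate is shown; the record names a cut of 25% in any replicate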
Calb FLC = affects C. albicans growth with fluconazole; actives 0.57% (n = 300,000); growth inhibition, % (no concentration beside the values); AID 1979; C. albicans CaCi-2 (fluconazole-resistant clinical isolate) + fluconazole, Alamar Blue growth, 48 h;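 active = most replicates above 75%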;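 note: all wells also contain fluconazole at 8 µg/ml as a sub-toxic cotreatment; 0% = median of DMSO wells and 100% = median of geldanamycin control wells; wells of about 8 µL received 7.5 nL stock; the first replicate is given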
Beta cell apopt = beta cell apoptosis inhibition. actives 0.8% (n = 300,000). INS-1E cytokine-induced death, ATP luminescence, 48 h; percent of positive-control rescue, neutral wells zero. protection from apoptosis, % (concentration not given with the values);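 active = all replicates at 75% or more, or half of them and the mean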;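 note: 0% = cytokine-treated negative control wells and 100% = positive control rescue; higher means more ATP so stronger rescue from cytokine killing; wells of about 40 µL received 100 nL stock; the first replicate is given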
B2AR ag = agonists of human beta-2 adrenergic receptor inducing internalization | actives 0.43% (n = 340,000) | AID 504454 | Am2.2-beta2AR cells, FAP receptor internalization, flow cytometry; reference of the scale not given here | P07550 | response, % (concentration not given with the values);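 active = response above a set limit, near 3 SD of response in nonfluorescent compounds, cut at about 42% in these data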;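 note: stock transfer was 100 nL into about 11 µL; a reference agonist was the positive control; negative values mostly stem from fluorescent compounds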
Target sequence (P07550 whole entry, looked up): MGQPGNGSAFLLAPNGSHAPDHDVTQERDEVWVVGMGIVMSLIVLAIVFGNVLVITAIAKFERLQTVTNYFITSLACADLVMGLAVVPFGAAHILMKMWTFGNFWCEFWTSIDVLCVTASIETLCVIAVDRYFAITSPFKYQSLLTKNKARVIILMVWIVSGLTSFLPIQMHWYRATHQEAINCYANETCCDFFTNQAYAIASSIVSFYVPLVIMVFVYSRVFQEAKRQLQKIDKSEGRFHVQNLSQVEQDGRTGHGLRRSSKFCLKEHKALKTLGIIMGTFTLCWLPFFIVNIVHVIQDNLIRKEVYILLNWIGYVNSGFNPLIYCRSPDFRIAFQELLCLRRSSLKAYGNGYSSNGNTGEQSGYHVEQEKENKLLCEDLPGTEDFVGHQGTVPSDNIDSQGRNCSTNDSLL
A1 inh = inhibitors of the anti-apoptotic protein A1, read as caspase activation. MEF A1-2A-BIM cells, Caspase-Glo 3/7 luminescence, 3 h; percent of clofoctol response, vehicle zero. caspase activation, % (concentration not given with the values). actives 0.066% (n = 330,000);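 active = over half of replicate activation scores above 10%, or exactly half above 10 with the replicate mean above 10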;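 note: wells of about 30 µL received 50 nL stock; many hits fall short of the cut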
T cruzi repl = T. cruzi replication inhibition; T. cruzi beta-gal in NIH3T3, luminescence, 90 h; inhibition, % (no concentration beside the values); actives 1.4% (n = 300,000); AID 1885;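 active = mean inhibition across valid replicates above about 55%, limit read from the data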;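 note: signal also drops with host cell toxicity which is not excluded here; 0% = plate median of DMSO wells and 100% = zero luminescence signal; higher percent means less beta-gal luminescence so fewer parasites; stock transfer was 50 nL into about 50 µL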
UCH37 DUB inh = inhibitors of human deubiquitinating enzyme UCH37; Q9Y5K5; purified proteasome/UCH37, Ub-AMC cleavage fluorescence; inhibition, % (concentration not given with the values); actives 0.33% (n = 330,000); AID 588478;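 active = mean of two replicates above 20%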;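 note: 0% = compound-free wells with enzyme and 100% = wells lacking proteasome; stock transfer was 100 nL into about 20 µL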
Target sequence (Q9Y5K5 whole entry, looked up): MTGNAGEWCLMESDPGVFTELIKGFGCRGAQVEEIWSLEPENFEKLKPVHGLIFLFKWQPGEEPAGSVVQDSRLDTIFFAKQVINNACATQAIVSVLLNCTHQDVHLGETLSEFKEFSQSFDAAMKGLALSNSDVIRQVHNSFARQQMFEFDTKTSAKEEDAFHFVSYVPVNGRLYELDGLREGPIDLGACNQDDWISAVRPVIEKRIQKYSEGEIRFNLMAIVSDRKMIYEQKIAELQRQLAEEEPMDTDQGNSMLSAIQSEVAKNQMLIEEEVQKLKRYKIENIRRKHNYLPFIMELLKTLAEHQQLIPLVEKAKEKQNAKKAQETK
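System: Proteasome-associated human UCH37 deubiquitinase; Input: 0.15 nM proteasome in added enzyme buffer; Also added: Ub-AMC substrate from 1 µM stock; Incubation: 30 min compound-proteasome preincubation then 25 min substrate reaction, room temperature; Detection: fluorescence, ex 355 nm, em 460 nm; Read-out: % inhibition of Ub-AMC cleavage fluorescence; Benchmarks: no-proteasome and no-compound wells.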
Numbers without * were called inactive. Compounds as they come, and some 4.3% of all compounds hit somewhere here.

How did Cc1ccc(-n2ccc(=O)c(-c3ccnc(SCc4cccc(Cl)c4)n3)n2)cc1 do in these assays?
RanGTP-Impb inh: 0.5; LANA-H2A inh: 1.8; Calb FLC: 8; Beta cell apopt: 14; B2AR ag: -5; A1 inh: 0.7; T cruzi repl: 27; UCH37 DUB inh: -18

How did O=C1N/C(=N\N=C\c2cccs2)SC1Cc1ccc(Cl)cc1 (stereo not given) do in these assays?
RanGTP-Impb inh: -0.4; LANA-H2A inh: 6.4; Calb FLC: 7; Beta cell apopt: 8; B2AR ag: 1; A1 inh: 0.1; T cruzi repl: -8

Results for Cc1cccc(Nc2ccc(C(=O)O)cc2[N+](=O)[O-])c1C ?
RanGTP-Impb inh: -1.8; LANA-H2A inh: -2.4; Calb FLC: 0; Beta cell apopt: 0; B2AR ag: 9; A1 inh: 0.0; T cruzi repl: -6; UCH37 DUB inh: 11

How did O=C(N/N=C/c1c(O)n(-c2ccccc2Cl)c(=O)c2ccccc12)C1COc2ccccc2O1 (stereo not given) do in these assays?
RanGTP-Impb inh: -1.8; LANA-H2A inh: -0.7; Calb FLC: -8; Beta cell apopt: 13; B2AR ag: -28; A1 inh: 1.1; T cruzi repl: 1; UCH37 DUB inh: -15

What do the screens show for `Cc1cc(C(=O)COc2ccc(Cl)cc2Br)c(C)n1C`?
RanGTP-Impb inh: 1.5; LANA-H2A inh: 1.2; Calb FLC: -2; Beta cell apopt: 2; B2AR ag: 4; A1 inh: 0.4; T cruzi repl: 14; UCH37 DUB inh: 1.4

What do the screens show for `COc1cccc(/C=N/NC(=O)Cn2nc([N+](=O)[O-])cc2C)c1`?
RanGTP-Impb inh: -4.0; LANA-H2A inh: 2.4; Calb FLC: 1; Beta cell apopt: 1; B2AR ag: -2; A1 inh: -0.4; T cruzi repl: 6

Results for CC(C)OCCCNC(=O)c1ccccc1Oc1ccccc1 ?
RanGTP-Impb inh: 3.4; LANA-H2A inh: -0.5; Calb FLC: -6; Beta cell apopt: -6; B2AR ag: -9; A1 inh: 0.3; T cruzi repl: -8; UCH37 DUB inh: 3.2

How did Cc1ccc(C(=O)Nc2ccccc2C(=O)O)cc1NC(=O)COc1c(C)cccc1C do in these assays?
RanGTP-Impb inh: 4.8; LANA-H2A inh: 4.9; Calb FLC: 22; Beta cell apopt: -1; B2AR ag: 9; A1 inh: 0.2; T cruzi repl: 4; UCH37 DUB inh: 0.0

How did CCCC(=O)NCc1cc(-c2nn(C)c(=O)c3ccccc23)ccc1OC do in these assays?
RanGTP-Impb inh: -1.6; LANA-H2A inh: -0.8; Calb FLC: -15; Beta cell apopt: -6; B2AR ag: -1; A1 inh: 1.1; T cruzi repl: 13; UCH37 DUB inh: -1.8

Results for Cc1cc(=O)oc2cc(NC(=O)C3COc4ccccc4O3)ccc12 (stereo not given) ?
RanGTP-Impb inh: -5.9; LANA-H2A inh: -2.0; Calb FLC: 7; B2AR ag: 0; A1 inh: 0.5; T cruzi repl: 1; UCH37 DUB inh: -16

How did C[C@H](CO)N1C[C@H](C)[C@@H](CN(C)Cc2ccncc2)Oc2c(NS(=O)(=O)c3cccs3)cccc2C1=O do in these assays?
LANA-H2A inh: -1.2; Beta cell apopt: -10; B2AR ag: -1; A1 inh: 0.4; UCH37 DUB inh: 1.1

How did CC(C)N1CCc2c(sc(NC(=O)c3cc4cc([N+](=O)[O-])ccc4s3)c2C(N)=O)C1 do in these assays?
RanGTP-Impb inh: 33*; Calb FLC: 27; B2AR ag: -1; T cruzi repl: -1; UCH37 DUB inh: 6.3

How did Nc1c(NC(=O)CC[n+]2ccccc2)cccc1[N+](=O)[O-] do in these assays?
RanGTP-Impb inh: -3.2; LANA-H2A inh: -5.3; Calb FLC: 4; Beta cell apopt: -4; B2AR ag: -2; A1 inh: 0.4; T cruzi repl: -9

What do the screens show for `Cc1ccc(C(=O)N2CCN3C(=O)c4ccccc4C23c2ccc(Cl)cc2)cc1` (stereo not given)?
RanGTP-Impb inh: 2.8; LANA-H2A inh: -7.6; Calb FLC: 1; Beta cell apopt: 3; B2AR ag: 1; A1 inh: 0.4; T cruzi repl: 18; UCH37 DUB inh: 5.2

What do the screens show for `CC(=O)Nc1ccc(-c2nnn(CC(=O)c3ccc(F)cc3)n2)cc1Cl`?
RanGTP-Impb inh: 1.0; LANA-H2A inh: 3.7; Calb FLC: -10; Beta cell apopt: -2; B2AR ag: -11; A1 inh: 0.6; T cruzi repl: 6; UCH37 DUB inh: 1.7

How did COc1ccc(NC(=O)C2CCCCN2S(=O)(=O)c2ccc(F)cc2)cc1 (stereo not given) do in these assays?
RanGTP-Impb inh: -2.1; LANA-H2A inh: 0.0; Calb FLC: 14; Beta cell apopt: -2; B2AR ag: 3; A1 inh: -1.3; T cruzi repl: 1; UCH37 DUB inh: 2.1

How did Cc1ccc2[nH]c(=O)c(CN(Cc3cccs3)Cc3nnnn3CC3CCCO3)cc2c1 (stereo not given) do in these assays?
RanGTP-Impb inh: -1.1; LANA-H2A inh: 0.2; Calb FLC: 19; Beta cell apopt: -11; B2AR ag: -10; A1 inh: 1.1; T cruzi repl: 19; UCH37 DUB inh: 0.2

Results for C=CCN(CC(=O)O)S(=O)(=O)c1ccccc1C(F)(F)F ?
RanGTP-Impb inh: 5.6; LANA-H2A inh: 2.0; Calb FLC: -7; Beta cell apopt: 3; B2AR ag: 0; A1 inh: 0.6; T cruzi repl: -2; UCH37 DUB inh: 0.3

Results for COc1ccc2c(c1)[C@H]1[C@H](CO2)[C@H](c2ccccc2)[C@]2(C)C(=O)N(Cc3ccc(C)cc3)CC(=O)N12 ?
LANA-H2A inh: 3.5; Beta cell apopt: 12; B2AR ag: 2; A1 inh: -0.6; UCH37 DUB inh: 1.3

Results for CC1=NN(C(=O)c2cccnc2)C(O)(C(F)(F)F)C1 (stereo not given) ?
RanGTP-Impb inh: 0.4; LANA-H2A inh: -8.0; Calb FLC: 9; Beta cell apopt: -3; B2AR ag: 3; A1 inh: -0.1; T cruzi repl: 0; UCH37 DUB inh: 2.9

Results for CCN(CC)S(=O)(=O)c1cccc(C(=O)Nc2ccc(Cl)cn2)c1 ?
RanGTP-Impb inh: 0.7; LANA-H2A inh: -1.2; Calb FLC: -2; Beta cell apopt: -2; B2AR ag: 0; A1 inh: -0.3; T cruzi repl: 23; UCH37 DUB inh: 2.7

Results for O=C(NCCN1CCOCC1)C(=O)NCC1OCCN1S(=O)(=O)c1ccc(Br)cc1 (stereo not given) ?
RanGTP-Impb inh: -1.4; LANA-H2A inh: 4.6; Calb FLC: -2; Beta cell apopt: -3; B2AR ag: -2; A1 inh: 1.1; T cruzi repl: -2; UCH37 DUB inh: 2.5

What do the screens show for `Cc1nnc(SCCn2c(N3CCC(C)CC3)nc3c2c(=O)n(C)c(=O)n3C)s1`?
RanGTP-Impb inh: 0.0; LANA-H2A inh: 2.3; Calb FLC: 3; Beta cell apopt: -7; B2AR ag: 14; A1 inh: 0.3; T cruzi repl: -12; UCH37 DUB inh: 2.2

What do the screens show for `COc1ccc(Cl)cc1NC(=O)CN(C)C(=O)CCCNC(=O)c1ccc(Cl)cc1`?
LANA-H2A inh: -13; Beta cell apopt: 3; B2AR ag: 1; A1 inh: 0.6; UCH37 DUB inh: 0.9

Results for COc1cccc(CN(C)C(=O)c2cccnc2SC)c1OC ?
RanGTP-Impb inh: 1.0; LANA-H2A inh: -0.3; Calb FLC: 15; Beta cell apopt: -1; B2AR ag: 7; A1 inh: -0.1; T cruzi repl: -8; UCH37 DUB inh: 0.8

How did COc1ccc(C(=O)Nc2ccc(C(=O)Nc3nccs3)cc2)cc1[N+](=O)[O-] do in these assays?
RanGTP-Impb inh: 3.3; LANA-H2A inh: 8.5; Calb FLC: -6; Beta cell apopt: -9; B2AR ag: 11; A1 inh: -0.6; T cruzi repl: -17; UCH37 DUB inh: 1.5

Results for COc1ccc(CNC(=O)C2CC(=O)N(c3ccc(OCC(=O)N4CCCCC4)cc3)C2)cc1 (stereo not given) ?
RanGTP-Impb inh: 1.6; LANA-H2A inh: 2.5; Calb FLC: -2; Beta cell apopt: -4; B2AR ag: 6; A1 inh: 0.5; T cruzi repl: 1; UCH37 DUB inh: 2.5

Results for Cc1ccc(CN(C(=O)c2csnn2)C(C(=O)NC2CCCC2)c2ccccn2)cc1 (stereo not given) ?
RanGTP-Impb inh: -1.2; LANA-H2A inh: 1.4; Calb FLC: 8; Beta cell apopt: 1; B2AR ag: -4; A1 inh: -0.7; T cruzi repl: -2; UCH37 DUB inh: 5.3

Results for CCc1cccc(NC(=O)CCSCCC(=O)Nc2cccc(CC)c2)c1 ?
RanGTP-Impb inh: 4.2; LANA-H2A inh: -0.8; Calb FLC: -6; Beta cell apopt: -11; B2AR ag: -3; A1 inh: 1.6; T cruzi repl: -10; UCH37 DUB inh: -0.6

What do the screens show for `NNC(=O)CN1C(=O)Nc2ccc(Cl)cc2C1c1ccccc1` (stereo not given)?
RanGTP-Impb inh: -3.2; LANA-H2A inh: 3.0; Calb FLC: 2; Beta cell apopt: -1; B2AR ag: -4; A1 inh: -0.6; T cruzi repl: 4; UCH37 DUB inh: 1.1

Results for CC(C)(C)C(=O)CC(=O)Nc1ccc(Cl)c(N)c1 ?
RanGTP-Impb inh: 4.0; LANA-H2A inh: -3.8; Calb FLC: 7; Beta cell apopt: -1; B2AR ag: -5; A1 inh: -0.1; T cruzi repl: -8; UCH37 DUB inh: 1.5

What do the screens show for `CCSc1nnc(NC(=O)CN(C)S(=O)(=O)c2ccc(F)cc2)s1`?
RanGTP-Impb inh: -4.0; LANA-H2A inh: -3.0; Calb FLC: 9; Beta cell apopt: -4; B2AR ag: 4; A1 inh: 0.6; T cruzi repl: 4; UCH37 DUB inh: 0.7

What do the screens show for `Cc1ccc(S(=O)(=O)Oc2ccc(/C=N/NC(=O)c3nn(C)cc3[N+](=O)[O-])cc2)cc1`?
RanGTP-Impb inh: -1.1; LANA-H2A inh: -0.5; Calb FLC: 10; Beta cell apopt: -4; B2AR ag: 6; A1 inh: -0.3; T cruzi repl: -10

Results for O=C(Nc1ccccc1C(=O)NCc1ccco1)NC1CCCCC1 ?
RanGTP-Impb inh: 0.2; LANA-H2A inh: -1.3; Calb FLC: -3; Beta cell apopt: 0; B2AR ag: -8; A1 inh: -0.8; T cruzi repl: 2; UCH37 DUB inh: 2.4

How did COC(=O)c1ccc(C(=O)N(CCN(C)C)c2nc3c(Cl)cccc3s2)cc1 do in these assays?
RanGTP-Impb inh: 4.8; LANA-H2A inh: 0.4; Calb FLC: 3; Beta cell apopt: 0; B2AR ag: -13; A1 inh: 0.3; T cruzi repl: 49; UCH37 DUB inh: 3.3

What do the screens show for `CCc1ccc(OCCCC(=O)O)c(Br)c1`?
RanGTP-Impb inh: 0.4; LANA-H2A inh: 0.7; Calb FLC: 25; Beta cell apopt: -6; B2AR ag: -8; A1 inh: -0.7; T cruzi repl: -1; UCH37 DUB inh: 0.9

Bioassay records (PubChem)
